From PubChem
CBX7 AlphaScr: CBX7 chromodomain binding inhibitors, primary screen, biochemical, AlphaScreen. AlphaScreen His6-CBX7 / biotin-H3K27me3 peptide binding; hits give low values. normalised signal (fraction of DMSO) (concentration not given with the values). 66,000 compounds, 1.1% hits. Chromobox protein homolog 7 (Homo sapiens), O95931. AID 1224903, 2016; in the data active = normalised signal below about 0.5;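 note: 100 nL library stock added to about 20 µL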
Target sequence (O95931 whole entry, looked up): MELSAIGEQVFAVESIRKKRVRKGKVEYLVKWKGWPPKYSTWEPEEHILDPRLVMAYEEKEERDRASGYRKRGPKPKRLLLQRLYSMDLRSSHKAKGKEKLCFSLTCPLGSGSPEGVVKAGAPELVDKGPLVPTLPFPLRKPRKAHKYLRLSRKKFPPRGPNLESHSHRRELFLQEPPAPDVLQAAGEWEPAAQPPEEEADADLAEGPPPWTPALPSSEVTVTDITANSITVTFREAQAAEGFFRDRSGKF
CBX7 AlphaScr z-score: also measured in CBX7 AlphaScr; calls as there; z-score; measured here: z-score of CBX7 signal; some inactives read as strong as hits; reference of the scale not given here;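 same signal on another scale; lower means less binding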
* hit, by the source's call; & = joins results of further samples.

Order of results – CBX7 AlphaScr	CBX7 AlphaScr z-score
> Cc1ccc(-n2c(=O)cc(N3CCN(c4ccccc4Cl)CC3)[nH]c2=O)cc1
 : 1.1	1.82
> Cc1ccc2c(c1)c1c(n2CC(O)CNC2CCCC2)CCCC1 (configuration not stated)
 : 0.775	-7.28
> COc1ccc(NC(=O)C(NS(=O)(=O)c2ccc3nc(C)sc3c2)C(C)C)c(OC)c1 (configuration not stated)
 : 0.992	-0.145
> Cc1nc2sc(C(c3cccs3)N3CC(C)OC(C)C3)c(O)n2n1 (configuration not stated)
 : 0.986	-0.688
> COc1ccc(Cl)cc1Nc1nc(C)nc2sc(C)c(C)c12
 : 1.05	0.0668
> CCC(Sc1nc(NCC2CCCO2)c2ccccc2n1)C(=O)Nc1ccc2c(c1)OCO2 (configuration not stated)
 : 0.871	-0.36
> CCOc1ccc(-n2nc(C(=O)Nc3ccc4c(c3)OCCO4)c3ccccc3c2=O)cc1
 : 0.777	-2.88
> COc1ccc(-n2ncnc2-c2ccc(Cl)cc2)cc1
 : 0.777	-2.95
> CCOC(=O)N1CCN(c2c(N3CCN(c4cccc(C)c4C)CC3)c(=O)c2=O)CC1
 : 0.989	-0.314
> CN1CCN(CCCNC(=O)c2cc3c(s2)-c2ccccc2OC3)CC1
 : 1.03	1.68
> O=C(Nc1cccc(Cl)c1)Nc1nnc(/C=C/c2ccccc2)s1
 : 1.04	0.661
> Cc1nc2ccc(S(=O)(=O)NC(C(=O)NCc3cccs3)C(C)C)cc2s1 (configuration not stated)
 : 1.16	2.5
> COC(=O)c1ccc2nc(C)cc(Nc3cc(Cl)ccc3OC)c2c1
 : 1.03	0.307
> COc1cc(CNc2ccc3[nH]c(=O)[nH]c3c2)cc(Br)c1OCC(=O)NC(C)(C)C
 : 0.841	-4.21
> COc1ccc(-n2ncc3c(Nc4cccc5c4CCCC5)ncnc32)cc1
 : 0.836	-0.577
> COc1ccc(CCNC(=O)CCC2=NS(=O)(=O)c3ccccc3N2)cc1OC
 : 0.996	-0.113
> CCN(CC)S(=O)(=O)c1ccc2oc(C(=O)NCc3ccc(C)cc3)c(C)c2c1
 : 0.91	-0.904
> COC(=O)c1ccccc1NC(=O)COc1ccccc1C(C)(C)C
 : 1.17	0.296
> O=C(CCn1nc(-c2ccccc2)c2ccccc2c1=O)NCc1ccccc1
 : 1.02	0.651
> O=C(Nc1c(-c2ccccc2)nc2ncccn12)c1ccccc1
 : 0.86	-0.567
> Fc1ccc(CSc2nc3ccncc3n2Cc2ccccc2Cl)cc1
 : 1.02	0.791
> Cc1cc(C)cc(NS(=O)(=O)c2ccc3c(c2)CCN3C(=O)CCC(=O)O)c1
 : 0.891	-1.78
> CCCn1cnc2cc(NCc3ccc(Br)cc3)ccc21
 : 0.326*	-19.4*
> Cc1cc2cc(CNC(=O)c3ccc(S(=O)(=O)N4CCCC4)cc3)ccc2[nH]1
 : 0.853	-2.41
> Cc1ccc(C(=O)c2oc3ccccc3c2NC(=O)c2oc3ccccc3c2C)cc1
 : 1.66	2.89
> Fc1ccc(-c2nc(-c3ccccc3)c(-c3ccc(F)cc3)o2)cc1
 : 1.05	1.09
> C=CCn1c(CCNC(=O)c2ccc(OC)c(OC)c2)nc2ccccc21
 : 0.995	-0.0734
> O=C(Nc1ccc(Cl)cn1)Nc1ccccc1Cl
 : 1.07	2.02
> COc1ccc(C2C(C(=O)Nc3ccc(F)cc3F)CCC(=O)N2c2ccc3c(c2)OCO3)cc1 (configuration not stated)
 : 1.04	1.74
> O=C(c1ccccc1Cl)N1CCc2c([nH]c3ccccc23)C1c1ccc2c(c1)OCO2 (configuration not stated)
 : 0.784	-5.76
> COc1cccc(Nc2nnc(Cc3cccnc3)c3ccccc23)c1
 : 1.02	0.469
> O=C(Nc1cccc(F)c1)C1CCCN(S(=O)(=O)c2cccnc2)C1 (configuration not stated)
 : 0.998	-0.00181
> Cc1ccc(OCC(=O)Nc2ccc(-c3nc4ccccc4o3)cc2)cc1C
 : 1.02	0.634
> COc1ccc2c(c1)CCc1c(C(=O)NCCc3ccccc3)noc1-2
 : 1.08	0.616
> COc1ccc(CNC2CC(=O)N(c3ccccc3)C2=O)cc1 (configuration not stated)
 : 1.02	0.104
> CCN(CC)S(=O)(=O)c1ccc(C(=O)NCCc2cc3ccc(C)cc3[nH]c2=O)cc1
 : 0.956	-1.47
> Cc1cccc(-n2ccnc2SCC(=O)Nc2cc(C(F)(F)F)ccc2Cl)c1
 : 0.811	-0.189
> Cc1ccc(C)c(N2C(=O)CC(Cc3ccc(Cl)cc3)C2=O)c1 (configuration not stated)
 : 1.05	0.348
> CCOc1ccc(CCNC(=O)c2cccc3c2C(=O)N(C2CCCCC2)C3)cc1OCC
 : 0.844	-2.9
> O=C(Nc1ccc(-c2nc3ncccc3o2)cc1)c1cc(Cl)ccc1Cl
 : 0.961	-0.978
> CCOC(=O)C1CCCN(C(=O)Cn2ncc3ccsc3c2=O)C1 (configuration not stated)
 : 0.971	-1.31
> CC1CCN(c2c(NCc3ccc(C(=O)N4CCN(c5ccccn5)CC4)cc3)c(=O)c2=O)CC1
 : 0.988	-0.168
> CC(C)OCCCNC(=O)C1CCN(c2nc3ccccc3[nH]2)CC1
 : 0.962	-0.435
> O=C(Cn1ccc2ccccc2c1=O)NCC(=O)Nc1ccccc1F
 : 0.973	-0.271
> CCOC(=O)c1[nH]c2ccc(OCc3ccccc3)cc2c1C
 : 1.1	2.43
> COc1ccc(-c2noc(CCC(=O)NCCC(C)C)n2)cc1
 : 1.09	2.58
> Cc1ccc2c(c1)-c1c(cnn1CC(=O)N1CCN(c3cccc(C)c3C)CC1)CO2
 : 0.996	-0.108
> CCC1=Nc2cc(C(=O)NCCOC)ccc2Sc2ccccc21
 : 0.944	-0.641
> Cc1c(Cl)cccc1-n1nc(-c2ccc(Cl)cc2)cc1-c1ccc(Cl)cc1
 : 1.2	3.04
> COc1ccc(NC(=O)CC2C(=O)N(c3ccc(OC)cc3)C(=O)N2Cc2cccs2)cc1 (configuration not stated)
 : 1.05	1.69
> COc1ccc(N2CCN(C(=O)c3ccc4c(=O)n5c(nc4c3)CCCCC5)CC2)cc1
 : 0.869	-0.273
> COc1ccccc1-c1cc2nc(C)c(CCC(=O)NCc3ccc4c(c3)OCO4)c(C)n2n1
 : 0.998	-0.0649
> COc1cccc(-c2cc(C(=O)NCCc3ccccc3)no2)c1
 : 0.916	-0.962
> COc1ccc(-c2noc(CCC(=O)Nc3cc(Cl)ccc3OC)n2)cc1
 : 1.03	0.0252
> CCc1ccc(-c2nc(C(=O)NCc3ccccc3Cl)c(C)o2)cc1
 : 0.923	-1.39
> COc1cccc(C(=O)NCCc2cc3c(OC)ccc(OC)c3[nH]c2=O)c1OC
 : 0.981	-0.747
> CCCCNC(=O)C1C2C(=O)N(Cc3ccccc3)CC23C=CC1(C)O3 (configuration not stated)
 : 1.1	0.606
> COc1cccc(-c2nc3sc4c(c3c(=O)[nH]2)CCCC4)c1
 : 1.27	1.95
> COc1ccc(Nc2ncc(C(=O)NCC3COc4ccccc4O3)c3ccccc23)cc1 (configuration not stated)
 : 0.777	-3.76
> Cc1ccc2c(c1C)NC(=O)CC2c1ccccc1OC(C)C (configuration not stated)
 : 0.98	-0.253

Exported as tab-separated lines: 7 of the compounds above.
compound	CBX7 AlphaScr	CBX7 AlphaScr z-score
O=C(Nc1c(-c2ccccc2)nc2ncccn12)c1ccccc1	0.86	-0.567
Fc1ccc(CSc2nc3ccncc3n2Cc2ccccc2Cl)cc1	1.02	0.791
Cc1cc(C)cc(NS(=O)(=O)c2ccc3c(c2)CCN3C(=O)CCC(=O)O)c1	0.891	-1.78
CCCn1cnc2cc(NCc3ccc(Br)cc3)ccc21	0.326*	-19.4*
Cc1cc2cc(CNC(=O)c3ccc(S(=O)(=O)N4CCCC4)cc3)ccc2[nH]1	0.853	-2.41
Cc1ccc(C(=O)c2oc3ccccc3c2NC(=O)c2oc3ccccc3c2C)cc1	1.66	2.89
Fc1ccc(-c2nc(-c3ccccc3)c(-c3ccc(F)cc3)o2)cc1	1.05	1.09

(further entries)
Order of results – CBX7 AlphaScr	CBX7 AlphaScr z-score
> COc1ccc(-c2cc(C(F)(F)F)nc(N3CCCC3)n2)cc1
 : 2.71	13.7
> Cc1nn(C)c(C)c1S(=O)(=O)N(CC(=O)Nc1ccc(C(C)C)cc1)c1ccc(C(C)C)cc1
 : 1.29	2.08
> COc1ccccc1C(=O)N1CC(=O)Nc2ccc(Cl)cc2C1c1ccccc1 (configuration not stated)
 : 0.775	-2.15
> Cc1cc(Nc2ccc(Br)cc2)n2nc(C)nc2n1
 : 1.08	1.72
> C=CCNC(=O)c1cc(-c2ccccn2)nc2ccc(S(=O)(=O)N3CCOCC3)cc12
 : 0.991	-0.179
> O=C(c1cc2c(s1)-c1ccccc1OC2)N1CCC(N2CCCCC2)CC1
 : 1.11	2.71
> O=c1[nH]c2ccccc2nc1Cc1ccccc1Cl
 : 1.22	2.35
> Cc1ccc(S(=O)(=O)c2c[nH]c3ccc(C)cc3c2=O)cc1
 : 1.11	0.458
> CCCCN(CCCC)CCNC(=O)CN1C(=O)CC(C)(C)Sc2ccccc21
 : 1.05	1.42
> O=C(CN1C(=O)CCSc2ccccc21)NCc1ccc(F)cc1
 : 0.986	-0.671
> Cn1cc(CC(=O)N2CCN(c3cccc(Cl)c3)CC2)c2ccccc21
 : 0.79	-2.42
> Cc1cccc(CN2C(=O)CSc3ccc(C(=O)NCc4ccccc4)cc32)c1
 : 1.01	0.312
> COc1cc2c(C(=O)Nc3ccc(F)cc3)cn(CC(C)C)c(=O)c2cc1OC
 : 1.03	0.789
> CCC(=O)N1CCc2cc(S(=O)(=O)NCc3ccccc3Cl)ccc21
 : 1.08	0.815
> O=C(CCC1=NS(=O)(=O)c2ccccc2N1)Nc1ccc2c(c1)OCCO2
 : 0.958	-0.483
> Cc1ccc(CCNC(=O)C2CCN(Cc3nc(-c4ccc(Cl)cc4)oc3C)CC2)cc1
 : 1.02	0.236
> COc1ccc(-c2cc3nc(C)c(CCC(=O)Nc4ccc5c(c4)OCO5)c(C)n3n2)c(OC)c1
 : 0.914	-0.948
> Cc1ccc(CN2CCN(CC(=O)NCCCN3CCN(c4ccc(F)cc4)CC3)C2=O)cc1
 : 0.93	-1.37
> Cc1cccc(-c2nnc(NC(=O)c3ccccc3F)s2)c1
 : 1.13	1.39
> Cc1ccc(NC(=O)c2c(-c3c(F)cccc3Cl)noc2C)cc1
 : 0.985	-0.0407
> Cc1cccc(S(=O)(=O)Nc2cccc(-c3cn4c(C)cccc4n3)c2)c1
 : 0.954	-0.952
> COc1ccc(/C=C\c2onc(C)c2S(=O)(=O)N2CCC(C(=O)N3CCCC(C)C3)CC2)cc1 (configuration not stated)
 : 0.874	-0.262
> CCOC(=O)c1c(NC(=O)c2cc(Cl)ccc2OC)sc(C)c1C
 : 1.19	2.67
> CCOC(=O)Cc1nnc2c(Nc3ccccc3F)nc3nonc3n12
 : 0.916&1.03	-1.08&0.0475
> Cc1ccc(-c2noc(COc3cc(C)c(Cl)c(C)c3)n2)cc1
 : 1.42	4.12
> COc1cccc(-c2nn(C)c3sc(C(=O)Nc4cc(Cl)ccc4OC)cc23)c1
 : 0.991	-0.118
> COc1ccc(CCNC(=O)Cn2c(=O)[nH]c3ccsc3c2=O)cc1OC
 : 0.959	-0.918
> CN1CCN(c2oc(-c3ccc(Cl)cc3)nc2C#N)CC1
 : 0.954	-0.0538
> Cc1ccc(N2C(=O)CC(N3CCN(C/C=C/c4ccccc4)CC3)C2=O)cc1Cl (configuration not stated)
 : 1	0.0526
> CN(Cc1ccccc1)S(=O)(=O)c1ccc(C(=O)Nc2nnc(-c3ccccc3Cl)o2)cc1
 : 0.095*	-15.2*
> COc1ccc(S(=O)(=O)Nc2cccc(-c3cn4ccccc4n3)c2)cc1
 : 1.01	0.165
> Cc1cc(NC(=O)c2cccc(COc3ccc(Br)cc3)c2)no1
 : 1.18	0.245
> N#Cc1ccc(NC(=O)c2cc(-c3ccc(O)cc3)on2)cc1
 : 0.981	-0.642
> O=C(CN1C(=O)CC(c2ccccc2)Sc2ccccc21)NCC1CCCO1 (configuration not stated)
 : 1.12	1.96
> CCCCN(C(=O)Nc1ccc(OCC)cc1)C1CCN(C(C)=O)CC1
 : 0.795	-2.72
> CCN(CC)S(=O)(=O)c1ccc(C(=O)Nc2nnc(C)o2)cc1
 : 0.0844*	-23.8*
> Cc1ccc(NC(=O)c2cccc(C(=O)OC(C)C)n2)c(Br)c1
 : 1.19	1.83
> COc1ccc(-c2c(C)nn3c(N4CCC(C(=O)NC5CCCC5)CC4)cc(C)nc23)cc1OC
 : 1.01	0.505
> COc1cc2c(cc1OC)C(C(=O)N1CCC(N3CCCCC3)CC1)C1c3ccccc3CCN1C2=O (configuration not stated)
 : 0.953	-0.064
> COc1ccc(CN2C(=O)N(c3ccccc3)C(=O)C2CC(=O)Nc2ccccc2)cc1OC (configuration not stated)
 : 1.49	2.14
> Cc1ccc(-c2nn3c(C)nnc3s2)cc1NC(=O)c1ccc(OC(C)C)cc1
 : 1.01	0.34
> CCOc1ccc(-c2cc(CCCC(=O)NCCOC)no2)cc1
 : 1.02	0.431
> c1ccc(-c2nc3cnccn3c2Nc2ccc3c(c2)OCCO3)cc1
 : 0.828	-1.88
> Cc1ccc(OCC(=O)Nc2ccc(S(=O)(=O)Nc3ncccn3)cc2)cc1
 : 0.931	-0.787
> NC(=O)Cn1c(=O)n(Cc2ccccc2)c(=O)c2cccnc21
 : 1.01	0.229
> O=C(O)c1ccc2c(c1)NC(=O)C(CS(=O)(=O)Cc1cccc(Cl)c1)N2 (configuration not stated)
 : 0.956	-0.942
> O=C(c1ccc2c(c1)N(Cc1ccccc1F)C(=O)c1ccccc1S2(=O)=O)N1CCCCCC1
 : 0.894	-2.53
> Cc1onc(-c2ccccc2Cl)c1C(=O)Nc1ccc2c(c1)OCCO2
 : 0.879&0.939	-1.92&-0.061
> O=C1CSC(c2cccnc2)N1c1cccc(F)c1 (configuration not stated)
 : 1.07	1.93
> Cc1ccc(-c2nc(CS(=O)(=O)CC(=O)NCc3ccccc3)c(C)o2)cc1
 : 1.08	0.171

Only part of the results is shown; the hit share may differ from the screen's.
